Screening results as filed in PubChem.
NPYLR7 ag: mosquito NPYLR7 agonism. HEK293T NPYLR7/Galpha15, GCaMP6s calcium fluorescence. activation, % at 10 µM. 270,000 compounds, 0.15% hits. AID 1259423; in the data active means activation above about 40%;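 further: 0% = vehicle and 100% = reference agonist at the receptor; some compounds past the cut are filed as inactive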
NPYLR7 ag max-min: also measured in NPYLR7 ag; calls as there; activation, %; measured here: Max-Min RFU normalised activation; some inactives read as strong as hits;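 span of the calcium signal over five minutes; 0% = vehicle and 100% = native peptide agonist; compound fluorescence can raise it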
The depositor's hits bear a star; & = joins results of further samples. This is a subset; the hit share may differ from the screen's.

The line under a structure holds: NPYLR7 ag	NPYLR7 ag max-min
CC1(c2ccccc2)NC(=O)N(CC(=O)N2CCN(S(=O)(=O)c3ccccc3F)CC2)C1=O (stereo not given)
    3	0
CCOC(=NC(=O)c1ccc(OC)cc1)N(CCc1ccccc1)Cc1ccccc1
    15	24
N#CCCSc1nc2ccccc2s1
    7	6
Cc1ccc(NC2CCCN(C(=O)CN3CCOc4ccccc4C3)C2)cc1C (stereo not given)
    3	-1
COc1cccc(OC)c1OCCCSc1nc(C)cc(=O)[nH]1
    -6	9
CCOC(=O)CN(C(=O)c1ccccc1)[C@H]1C[C@H]2CCOC[C@H]2C1
    2	8
Cc1cnc(CNC(=O)c2cccc(C3CCNC3)c2)cn1 (stereo not given)
    6	6
S=C1NC2(CCCC2)N=C1c1ccc(Cl)cc1
    14	7
CC1(C(=O)NS(C)(=O)=O)CCN1C(=O)c1ccccc1 (stereo not given)
    -2	-2
O=c1[nH]c(CSCc2c(F)cccc2Cl)nc2ccccc12
    6	3
O=C(Nc1ccccc1C(=O)N1CCOCC1)N1CCOCC1
    -6	-13
CCC(C(=O)NCCN1CCn2cc(OC)c(=O)cc2C1=O)c1ccccc1 (stereo not given)
    14	3
O=C(CN(CC1CCCO1)C(=O)C(c1ccccc1)c1ccccc1)N(Cc1ccccc1)Cc1ccco1 (stereo not given)
    -6	-2
O=C(CCCC1CCCCC1)Nc1ccc(-c2cnc[nH]2)cc1
    4	0
C#CCNC(=O)CNC(=O)c1cc(Br)cnc1N(C)C
    11	9
C=CCN1C(=O)SC(CC(=O)Nc2ccc([N+](=O)[O-])cc2)C1=O (stereo not given)
    4	8
CCCCc1ccc(C(=O)Oc2ccc(-c3nc4cc(C)ccn4c3NC(C)(C)CC(C)(C)C)cc2OC)cc1
    19	26
CC(NS(=O)(=O)c1cn(C)c(=O)n(C)c1=O)c1ccccc1 (stereo not given)
    1	1
Cc1nc2n(n1)C(=O)C(C(c1ccco1)N1CCC(Cc3ccccc3)CC1)S2 (stereo not given)
    5	1
CCOC(=O)N1CCN(C(=O)CSc2nnc3n2CCN3c2ccc(OC)cc2)CC1
    -1	-2
Cn1c(=S)oc2cc(S(=O)(=O)N3CCOCC3)ccc21
    1	-1
COc1cccc(N2CCN(C(=O)c3ccc(Br)cc3)C(C)C2=O)c1 (stereo not given)
    -4	7
NC(=O)c1ncn2c(C(=O)N3CCCCC3)cc(-c3ccccc3)nc12
    2	1
COc1ccc(C2SCCN2C(=O)c2cc3ccccc3oc2=O)cc1 (stereo not given)
    -9	-12
CC(C)N(C(=O)Cn1cc(SCC(=O)NC2CCCC2)c2ccccc21)C(C)C
    -3	-7
Cc1cccc(-c2nnc(SCC(=O)N3CCCC3)n2-c2ccccc2)c1
    2	9
C[C@@H](C1=C(CCN(C)C)Cc2ccccc21)c1ccccn1
    -15	-19
C=CCn1c(=NC(=O)c2ccc(C(C)=O)cc2)sc2cccc(OC)c21
    -1	-1
CN(CCOc1ccc(Cl)cc1)Cn1nc2ccccn2c1=O
    1	0
COc1ccc(CCNc2ccc(S(=O)(=O)Cc3ccc(Cl)cc3)nn2)cc1OC
    -4	-12
Cc1ccc(NC(=O)CCc2csc(NC(=O)c3ccc[nH]c3=O)n2)cc1C
    -6	-15
CC(OC(=O)c1ccc(F)cc1N)C(=O)Nc1c(F)cccc1F (stereo not given)
    14	9
COC(=O)[C@H](Cc1ccc(OCc2c(Cl)cccc2Cl)cc1)N1C(=O)c2ccccc2C1=O
    1	-3
Cc1cc2c(cc1-c1nccn1-c1ccc3cn[nH]c3c1)OCO2
    -3	-4
CCC(C)(C)C1CCC(=NNC(=O)Cc2cccn2C)CC1 (stereo not given)
    2	6
O=C(NCC1CCN(C2CCCC2)CC1)C1(c2ccccc2)CCOCC1
    -2	-5
COc1ccc2nc(-c3ccc(C)c(NC(=O)NC4CCCCC4)c3)cn2n1
    -1	-2
O=C(c1nc2sccn2c1CN1CCN(Cc2ccccc2)CC1)N1CCCCCCC1
    4	-2
O=C(NCCN1CCCC1)[C@@]1(OCc2cccc(C(F)(F)F)c2)CC(OCc2cccc(OC(F)(F)F)c2)[C@H](O)[C@H](O)C1 (stereo not given in full)
    8	17
CCN(c1ccccc1)S(=O)(=O)c1ccc(NC(=O)C2CC2)cc1
    -1	-2
O=C(C1CC(c2cc(F)ccc2F)=NO1)N1CCC2(CCOC2)C1 (stereo not given)
    1	2
Cc1ccc(N=CC2=C(N3CCOCC3)/C(=C/c3ccccc3)CC2)cc1
    0	-3
COc1ccc(C(=O)NN=C(C)c2cc(Br)cc(Br)c2O)cc1OC
    1	-8
Fc1cc2c(c(CN(Cc3ccco3)C3CCCC3)c1)OCOC2
    3	0
CC(=O)NC1CCN(C(=O)c2csc(NCCc3ccccc3)n2)C1 (stereo not given)
    -4	-4
CCN=c1scc(-c2ccc(O)c(C(N)=O)c2)n1CC
    4	0
O=c1nc(SCc2ccccc2F)c2c([nH]1)CCC2
    -1	-5
O=C(CSc1nc2ccccc2[nH]1)Nc1ccccc1C(F)(F)F
    -4	-11
Cc1ccc(F)cc1Oc1ccc2c(-c3cccnc3)noc2n1
    7	5
Cc1nc2c(sc3cccc(F)c32)c(=O)n1CC(=O)NC1CCCCC1
    -3	-10
CC(C)N(CC(=O)N(Cc1ccccc1)Cc1cccn1Cc1ccc(F)cc1)C(=O)c1ccc([N+](=O)[O-])cc1
    28	29
O=C(N=Nc1c(O)[nH]c2ccccc12)C1COc2ccccc2O1 (stereo not given)
    -7&-1	-11&6
Cc1ccc2c(c1)C(=O)c1ccc(C)cc1C2=O
    7	1
CCOn1c(=O)c(-c2cccc(Br)c2)[n+]([O-])c2ccccc21
    -4	-5
CC(C)c1cc(C(=O)N2CCC(n3cc(-c4ccccn4)nn3)CC2)n(C)n1
    0	-1
COc1ccc(CC(=O)Nc2c(C)nc3sccn3c2=O)cc1
    17	7
c1ccc(Oc2ncccc2-c2noc([C@H]3CCCO3)n2)cc1
    23	13
O=C(CSc1nc2c(c(=O)n1Cc1ccccc1)SCC2)N1CCCCC1
    -17	-17
COc1cccc(CSCC(=O)NCc2cccs2)c1
    0	-3
Cc1cnc(NC(=O)C2CSCN2C(=O)c2ccoc2C)s1 (stereo not given)
    9	6

Additional entries
Molecule | NPYLR7 ag | NPYLR7 ag max-min
COc1ccc(CN2CCC(OCc3cccnc3)CC2)c(F)c1 | -2 | -8
CC1=NN(Cc2ccccc2)c2nc3c(c(=O)n(Cc4ccccc4)c(=O)n3C)n2C1C (stereo not given) | 2 | 8
CCc1nc2n(n1)C(=O)C(C(c1cccc(OC)c1)N1CCCCC1)S2 (stereo not given) | -2 | 27
CN(Cc1cccc(Cl)c1Cl)C(=O)Cc1nn(C)c(=O)c2ccccc12 | -1 | -2
C=CCN(Cc1cccn1Cc1ccc(F)cc1)C(=O)C(c1ccccc1)c1ccccc1 | 20 | 22
COc1ccc(-c2cn(-c3ccc(C)c(Cl)c3)c3[n+]2CCCS3)cc1 | 0 | -2
Cc1ccc(-n2c(-c3ccc(Cl)cc3)cc(C(=O)NC3CCN(Cc4ccccc4)CC3)c2C)cc1 | -6 | 0
CCCNC(=O)N(Cc1nccn1Cc1ccc(OC)cc1)CC(C)C | 6 | 15
CCNC(=O)C1CCN(C(=O)CSCc2ccccc2Cl)C1 (stereo not given) | -5 | -6
CC(C(=O)Nc1ccc(Cl)cc1F)N1CCC(C(=O)NCc2ccccc2)CC1 (stereo not given) | -2 | -3
O=C(c1ccccc1-n1cncn1)N1CCCC(Cn2ccnc2)C1 (stereo not given) | -1 | -4
CCCCCCn1c(-c2ccc(OC)cc2)csc1=Nc1ccccc1OC | -5 | -11
O=[N+]([O-])c1ccc(O)c(C=Nc2ccc(S(=O)(=O)N3CCCC3)cc2)c1 | 4 | 4
Cc1nccc(-c2ccccc2)c1C(=O)N1CCNCC1C(=O)NC1CC1 (stereo not given) | 5 | 3
CN1C(=C2C=NN(c3ccccc3)P2(=S)Nc2ccccn2)C(C)(C)c2ccccc21 (stereo not given) | 24 | 16
Cc1nc(S(=O)(=O)N2CCCC3CCCC32)cn1C (stereo not given) | 3 | 0
CC(=O)c1ccc(N=C2SCCCN2C(=O)CC2CCCC2)cc1 | 1 | 0
Cc1nn(C)c(C)c1NC(=O)c1cccc(CN(C)Cc2ccno2)c1 | -2 | -2
CCOC(=O)c1cc(-c2ccc(OC)cc2)n(-c2ccc(C(=O)NCc3cccs3)cc2)n1 | -2 | -5
Cc1nnc(CN(C(=O)c2cc(F)c(F)cc2Cl)C(C)(C)C)o1 | 4 | 1
Cc1nc(CC(=O)N2CCCC2c2nonc2C)cs1 (stereo not given) | 5 | 5
OC(Cc1ccccc1)c1ncc(-c2ccc(Cl)cc2)[nH]1 (stereo not given) | 2 | -2
C1=CCC(c2cn(Cc3nccn3Cc3ccccc3)nn2)CC1 (stereo not given) | -1 | 8
O=C(NC1CC1)C1CNCCN1C(=O)c1cc(=O)nc2sccn12 (stereo not given) | 17 | 11
CCS(=O)(=O)CCNC(=O)Cc1c(C)[nH]c2c(F)cccc12 | 2 | -2
COc1ccc(C(C2Sc3ncnn3C2=O)N2CCCC(C)C2)cc1OC (stereo not given) | 0 | 1
CCOc1ccc(C(=O)Nc2c(C)nc3c(C)cccn3c2=O)cc1OCC | 2 | 0
C=CCN(CC(=O)N1CCc2sccc2C1c1ccc(Cl)cc1Cl)C(=O)c1ccco1 (stereo not given) | -10 | -5
Cc1csc(/C(C#N)=C\c2ccc(C3CC3C)o2)n1 (stereo not given) | 12 | 8
CCCCN(Cc1cccn1Cc1cccc(C)c1)C(=O)CN(C(=O)c1ccc([N+](=O)[O-])cc1)C(C)C | 2 | 16
N#CC(=Cc1ccc(Cl)cc1)c1nc(C2CC2)cs1 | 3 | 3
O=C(Cn1cnc2scc(-c3ccc(Br)cc3)c2c1=O)c1ccco1 | 1 | 3
CC1=NN(c2ccc(C(=O)NC3CCCOc4ccc(F)cc43)cc2)CC1 (stereo not given) | -5 | -9
O=C(Nc1ccc(Cl)cc1)c1nnc(CN2CCCC2)s1 | 1 | 2
COc1cccc(CSc2nnc(CNC(=O)Nc3cc(C(F)(F)F)cc(C(F)(F)F)c3)n2-c2ccc(C)cc2)c1 | -9 | -12
O=C1CC2(CCCCC2)C(=O)N1Cc1nc2sccc2c(=O)[nH]1 | 12 | 5
COC(=O)c1ccc(NC(=O)c2nn(-c3ccccc3C)c(=O)cc2OC)cc1 | 5 | 2
CCOC(=O)CNC(=O)CSc1nnc(C)c2cnn(-c3ccccc3)c12 | -10 | -15
COc1ccccc1-n1c(SCC(=O)c2ccc(Cl)cc2)nc2c(c1=O)SCC2 | 6 | 5
CCCc1nc(CS(=O)Cc2cc3c(cc2Br)OCCO3)no1 (stereo not given) | 15 | 6
CCn1c(CC2CCN(Cc3ccc(C4CCCCO4)o3)CC2)n[nH]c1=O (stereo not given) | 7 | 4
O=c1[nH]cnc2c1C(c1cccc([N+](=O)[O-])c1)c1c(nc[nH]c1=O)O2 | 0 | 3
O=C(NCCCOc1cccc([N+](=O)[O-])c1)C(Cc1ccccc1)c1ccccc1 (stereo not given) | -5 | -12
N#Cc1c(C(F)(F)F)cc(-c2ccccc2)nc1SCC1COc2ccccc2O1 (stereo not given) | 1 | 2
O=C1NC(c2sc3ccccc3c2Cl)Nc2ccccc21 (stereo not given) | 17 | 17
O=C(c1ccc(Cn2cnnn2)cc1)N1CCCC1c1nccs1 (stereo not given) | 9 | 10
Cc1ccc(C)c(NC(=O)CSc2nnc(CNC(=O)c3ccco3)n2-c2ccc(Cl)c(Cl)c2)c1 | -8 | -6
CC1=C(C(=O)OCC(C)C)C(c2ccccc2[N+](=O)[O-])NC(=O)N1C (stereo not given) | -1 | -4
O=C(CCN(Cc1ccccc1)c1nc(-c2ccccc2)nc2ccccc12)NCc1ccco1 | 16 | 18
O=C(C=Cc1ccccc1)N(Cc1ccccc1)Cc1nc2ccccc2c(=O)[nH]1 | 7 | 0
CC(=O)Oc1ccc2c(=O)c(-c3ccccn3)coc2c1 | -14 | -18
CON(C)C(=O)C1CCC(C(F)(F)F)NC1=O (stereo not given) | -14 | -12
O=C(CSc1ccccc1)Nc1nnc(-c2ccncc2)o1 | 12 | 3
O=C1OC(C(=O)Nc2c(F)cc(F)cc2Br)Cc2ccccc21 (stereo not given) | -1 | -3
Cc1ccn(-c2ccc(N3CCN(C(=O)c4ccccc4C(F)(F)F)CC3)nn2)n1 | -5 | -10
Cc1cc(=O)n(CNC(=O)c2ccccc2)c(=S)[nH]1 | 0 | -1
CN(CCNC(=O)CCc1ccc(O)cc1)S(C)(=O)=O | 5 | 2

Compounds listed so far containing an aryl thioether with sulfur outside any ring (14):
Molecule | NPYLR7 ag | NPYLR7 ag max-min
N#CCCSc1nc2ccccc2s1 | 7 | 6
COc1cccc(OC)c1OCCCSc1nc(C)cc(=O)[nH]1 | -6 | 9
CCOC(=O)N1CCN(C(=O)CSc2nnc3n2CCN3c2ccc(OC)cc2)CC1 | -1 | -2
CC(C)N(C(=O)Cn1cc(SCC(=O)NC2CCCC2)c2ccccc21)C(C)C | -3 | -7
Cc1cccc(-c2nnc(SCC(=O)N3CCCC3)n2-c2ccccc2)c1 | 2 | 9
O=c1nc(SCc2ccccc2F)c2c([nH]1)CCC2 | -1 | -5
O=C(CSc1nc2ccccc2[nH]1)Nc1ccccc1C(F)(F)F | -4 | -11
O=C(CSc1nc2c(c(=O)n1Cc1ccccc1)SCC2)N1CCCCC1 | -17 | -17
COc1cccc(CSc2nnc(CNC(=O)Nc3cc(C(F)(F)F)cc(C(F)(F)F)c3)n2-c2ccc(C)cc2)c1 | -9 | -12
CCOC(=O)CNC(=O)CSc1nnc(C)c2cnn(-c3ccccc3)c12 | -10 | -15
COc1ccccc1-n1c(SCC(=O)c2ccc(Cl)cc2)nc2c(c1=O)SCC2 | 6 | 5
N#Cc1c(C(F)(F)F)cc(-c2ccccc2)nc1SCC1COc2ccccc2O1 (stereo not given) | 1 | 2
Cc1ccc(C)c(NC(=O)CSc2nnc(CNC(=O)c3ccco3)n2-c2ccc(Cl)c(Cl)c2)c1 | -8 | -6
O=C(CSc1ccccc1)Nc1nnc(-c2ccncc2)o1 | 12 | 3
